# Bioassay records as filed in PubChem BioAssay.
# RanGTP-Impb inh – inhibitors of RanGTP-importin-beta interaction, primary screen, biochemical, FRET, CFP-Ran, YFP-importin-beta, homogeneous | inhibition, % (concentration not given with the values) | Ran GTPase (GTP-bound) - importin-beta complex | cell-free CFP-Ran/YFP-importin-beta FRET ratio | 300,000 compounds, 1.1% hits | AID 2216, 2009;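 active means most replicates above 15%; inconclusive means exactly half above 15%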;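 further: 0% = DMSO wells and 100% = Ran loaded with GDP instead of GTP; wells of about 40 µL received 100 nL stock; the first replicate is given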
# Vif A3G – inhibitors of Vif binding to APOBEC3G peptide, primary screen, biochemical, TR-FRET, GST-Vif 1-94, biotin-A3G peptide, dose response retest (AID 1117319) | 260,000 compounds, 0.57% hits | TR-FRET GST-Vif / biotin-A3G peptide binding; higher % means a stronger effect; test concentration not given here; strong numbers were not always called active | inhibition, %; hits with a dose series show IC50 in µM;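 active means above the screen mean plus three standard deviations and confirmed in dose response; inconclusive means results disagree or hit not tested in dose response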;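 further: Vif residues 1-94 fused to GST binding biotinylated APOBEC3G peptide 110-148; 0% = full assay without inhibitor and 100% = GST in place of GST-Vif; retest series ran down from 100 µM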
# UCH37 DUB inh – inhibitors of human UCH37 deubiquitinase, primary screen, biochemical, Ub-AMC cleavage, fluorescence. purified proteasome/UCH37. Ubiquitin carboxyl-terminal hydrolase isozyme L5 (Homo sapiens), Q9Y5K5. 330,000 compounds, 0.33% hits. inhibition, % (concentration not given with the values);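 active means mean of two replicates above 20%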;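 further: 0% = compound-free wells with enzyme and 100% = wells lacking proteasome; stock transfer was 100 nL into about 20 µL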
# Target sequence (Q9Y5K5 whole entry, looked up): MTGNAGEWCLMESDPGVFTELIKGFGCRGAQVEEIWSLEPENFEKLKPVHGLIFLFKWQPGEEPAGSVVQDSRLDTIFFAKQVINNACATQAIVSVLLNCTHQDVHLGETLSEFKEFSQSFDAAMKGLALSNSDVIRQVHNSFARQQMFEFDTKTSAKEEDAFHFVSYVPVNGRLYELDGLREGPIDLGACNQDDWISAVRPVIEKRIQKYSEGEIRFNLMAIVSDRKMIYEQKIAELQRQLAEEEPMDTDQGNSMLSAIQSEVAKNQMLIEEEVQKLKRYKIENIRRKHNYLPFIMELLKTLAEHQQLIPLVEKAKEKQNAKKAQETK
#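 Material: human UCH37 enzyme supplied as purified proteasome complex. Measure: % inhibition of Ub-AMC cleavage fluorescence. Medium: pH 7.4 Tris-HCl (50 mM) with ovalbumin, ATP-MgCl2, DTT. Times: 30 min preincubation with enzyme, 25 min cleavage at room temperature. Detection: AMC fluorescence intensity at 355/460 nm.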
# FGF22 binding – binders of human FGF22 protein, primary screen, FGF22 synaptogenesis inhibitor project, biophysical, thermal shift, single point; calls only at 9.99 µM; AID 651658, 2012; 340,000 compounds, 1.5% hits; Fibroblast growth factor 22 (Homo sapiens), Q9HCT0; recombinant FGF22 thermal shift, SYPRO orange fluorescence; percent of sucrose octasulfate shift, DMSO zero;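 active means melting point raised past a set limit in the mean and every replicate; inconclusive means no clear call; three in four hits are not shown here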
# Target sequence (Q9HCT0 whole entry, looked up): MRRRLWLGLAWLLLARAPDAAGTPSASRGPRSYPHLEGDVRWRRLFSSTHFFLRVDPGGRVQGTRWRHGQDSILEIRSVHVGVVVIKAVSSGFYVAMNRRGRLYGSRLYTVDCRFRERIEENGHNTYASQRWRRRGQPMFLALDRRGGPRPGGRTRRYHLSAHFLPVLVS
# MLL AF4-AF9 inh – inhibitors of AF4 peptide binding to AF9, primary screen, biochemical, AlphaScreen, biotin-AF4 peptide, FLAG-AF9, single point; AID 651704, 2012; inhibition, % at 10 µM; Protein AF-9 (Homo sapiens), P42568; 350,000 compounds, 0.47% hits;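 active means every replicate reaching a set inhibition limit, whatever the replicate mean, cut at about 25% in these data; inconclusive means mean inhibition reaches that limit but some replicates miss it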;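 further: 0% = plate neutral control median and 100% = total signal loss; the record names both 10 and 1 µM as test concentration; the first replicate is given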
# Target sequence (P42568 whole entry, looked up): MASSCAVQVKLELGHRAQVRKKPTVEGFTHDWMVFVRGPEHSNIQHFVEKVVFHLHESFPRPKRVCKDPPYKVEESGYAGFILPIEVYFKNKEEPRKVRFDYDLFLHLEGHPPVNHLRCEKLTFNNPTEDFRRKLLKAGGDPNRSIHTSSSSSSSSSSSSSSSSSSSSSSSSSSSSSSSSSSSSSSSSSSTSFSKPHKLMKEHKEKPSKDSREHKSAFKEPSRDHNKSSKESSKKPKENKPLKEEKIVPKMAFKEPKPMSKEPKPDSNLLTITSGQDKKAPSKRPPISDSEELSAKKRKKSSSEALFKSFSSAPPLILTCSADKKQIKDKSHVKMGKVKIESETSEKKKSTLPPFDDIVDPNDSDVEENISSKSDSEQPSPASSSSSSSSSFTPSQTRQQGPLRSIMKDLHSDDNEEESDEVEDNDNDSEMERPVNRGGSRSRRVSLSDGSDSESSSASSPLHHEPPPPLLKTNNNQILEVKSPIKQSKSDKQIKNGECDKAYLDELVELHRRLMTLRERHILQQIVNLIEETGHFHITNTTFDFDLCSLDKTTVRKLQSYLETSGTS
# E coli growth – E. coli growth inhibition, primary screen, OD600 | Escherichia coli growth, 23 h; stronger effect = lower value | AID 1053175, 2014 | 330,000 compounds, 0.21% hits | OD600 absorbance (test concentration not listed);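 active means OD600 absorbance below the run mean of sample wells minus 3.6 SD, in any replicate, cut at about 0.56 in these data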;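 further: stock transfer was 300 nL into about 60 µL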
# HNF4A DNA FP – change in binding of human HNF4A to DNA, primary screen, biochemical, fluorescence polarization, FITC-DNA; 1 h; activity change, % at 10 µM; 360,000 compounds, 0.3% hits; Hepatocyte nuclear factor 4-alpha (Homo sapiens), P41235; AID 1224865, 2016; in the data active means activity change above about 30%, passing the limit was not always enough;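 further: controls were the assay level and a saturating level of protein; the project sought stronger binding though the title names inhibitors; some compounds called inactive have numbers as strong as hits; positive values seem to mean higher polarization but the record does not say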
# The depositor's hits bear a star; i = inactive; u = inconclusive; x = not tested or not shown. These rows are one share of the data (hit frequency here may not be typical).
SMILES,RanGTP-Impb inh,Vif A3G,UCH37 DUB inh,FGF22 binding,MLL AF4-AF9 inh,E coli growth,HNF4A DNA FP
C/C(=N/N1CCN(Cc2ccccc2)CC1)c1ccc(Br)cc1,2.3,x,x,i,11,x,3.9
Cc1oc2c(CN3CCCCC3)c(O)ccc2c(=O)c1-c1ccc(Br)cc1,-2.0,-1%,-330,i,1.3,0.68,1.6
COc1cccc(C2CC(C(F)(F)F)n3ncc(C(=O)O)c3N2)c1 (stereo unspecified),0.2,27%,1.9,x,x,0.73,-1.2
Cc1ccn2c(=O)nc(SCC(=O)N3CCCC3)nc2c1,12,3%,2.2,i,-0.1,0.68,-0.2
Nc1nnc(-c2ccc(Cl)c([N+](=O)[O-])c2)s1,-0.4,x,4.5,i,3.2,0.67,-2.0
COc1ccccc1C(CNC(=O)COc1cc(C)ccc1Cl)N1CCCC1 (stereo unspecified),6.0,-5%,-1.2,i,-0.4,0.65,1.7
O=C1CCN(Cc2ccc([N+](=O)[O-])cc2)CCN1CCO,-0.5,x,1.7,i,-8.5,0.72,3.6
Cn1nnc(NC(=O)c2ccco2)n1,u,9%,-1.2,x,x,0.64,1.1
CC(C)Oc1ccc(/C(O)=C2/C(=O)C(=O)N(CCN3CCNCC3)C2c2ccc(C(C)C)cc2)cc1 (stereo unspecified),1.0,1%,18,i,2.9,0.67,-1.3
COc1ccc2[nH]cc(CCNC(=O)C3CC(=O)N(c4ccc(Cl)cc4)C3)c2c1 (stereo unspecified),-1.1,14%,2.0,i,3.0,0.66,0.3
O=C(NC1CCCC1)C1C(c2ccc(C(F)(F)F)cc2)=Nc2ccccc2N1C(=O)c1cc2ccccc2[nH]1 (stereo unspecified),x,x,x,i,-5.6,x,4.4
COc1ccc(Oc2coc3cc(O)ccc3c2=O)cc1,2.7,x,-93,i,-8.6,0.64,-2.1
CCC1=C(OC(=O)N(CC)CC)N2C(=O)OC(=NCc3ccccc3)[C@]2(C)[C@H]2C1=CC[C@H]1C(=O)N(c3ccccc3)C(=O)[C@H]12,-0.1,x,0.5,i,8.7,x,0.0
COc1cccc(-c2cc(=O)c3cc(NC(=O)c4ccccc4)ccc3[nH]2)c1,-2.8,15%,-12,i,x,0.66,0.4
Cc1ccc(S(N)(=O)=O)cc1NC(=O)/C=C/c1cccs1,7.0,4%,9.7,x,x,0.7,1.0
COc1ccc(Cl)cc1NC(=O)CN(C)C(=O)c1ccc(-n2cncn2)cc1,x,-5%,3.3,i,8.4,0.68,2.9
CCN1CCN(c2ccc(NC(=O)c3cccc(S(=O)(=O)N4CCCC4)c3)cc2)CC1,x,-5%,2.7,i,8.5,0.66,1.3
CCC(=O)NC1(C(F)(F)F)C(=O)NC(C)=C1C#N (stereo unspecified),-1.7,4%,2.4,x,x,0.7,2.1
COCCNC(=S)N/N=C/c1ccc([N+](=O)[O-])cc1,5.2,13%,x,i,-1.8,x,1.9
c1ccc(Cn2c[n+](Cc3ccccc3)cn2)cc1,0.8,2%,3.5,i,2.1,0.65,-1.6
Cc1ccc(-n2c(SCC(N)=O)nnc2-c2ccccn2)cc1,-5.3,2%,4.5,x,x,0.68,0.8
COc1ccc(OC(F)(F)F)cc1CC1(C)C(=O)Nc2ccc(-c3ccsc3)cc21 (stereo unspecified),x,x,x,i,-3.4,x,-1.2
Cn1c(-c2ccc(F)cc2)cnc1SCC(=O)N1CCCc2ccccc21,-0.1,-11%,1.3,i,7.9,0.68,-0.3
Nc1c(C2CCCCC2)c(=O)on1C(=O)c1ccccc1,x,-2%,5.5,i,-3.3,0.71,-0.8
CCOCC(=O)Nc1ccc(S(=O)(=O)Nc2nccs2)cc1,-0.7,-1%,-0.4,i,-12,0.66,-1.5

# Carrying on:
SMILES,RanGTP-Impb inh,Vif A3G,UCH37 DUB inh,FGF22 binding,MLL AF4-AF9 inh,E coli growth,HNF4A DNA FP
Cc1c(NC(=O)CCSCCc2ccccn2)cccc1[N+](=O)[O-],-2.9,-10%,0.7,i,-3.4,0.68,4.5
NNC(=S)Nc1ccc(OC(F)(F)F)cc1,3.1,x,2.9,i,-7.8,0.68,-4.6
COc1cc(C(=O)NC(CCSC)C(=O)OCC(=O)NC(=O)C2CCCCC2)cc(OC)c1OC (stereo unspecified),2.8,1%,0.8,i,-0.6,0.65,-0.8
CSCCC(NC(=O)COc1ccccc1)C(=O)N1CCCCCC1 (stereo unspecified),x,-19%,1.3,i,-2.1,0.68,1.2
O=C1NN=C(CSc2n[nH]c(=S)s2)CS1,2.1,13%,1.8,i,-3.3,0.66,0.1
COc1ccc(/C=C2\CCCC3C2=NN(C(=O)CSc2n[nH]c(N)n2)C3c2ccc(OC)cc2)cc1 (stereo unspecified),-5.4,x,-11,i,14,0.65,1.3
CC(C)(C)c1ccccc1OCC(=O)NCc1ccccc1,4.8,x,-2.5,i,-0.4,0.66,1.7
COc1cc(/C=N/NC(=O)c2cc(-c3cccc(Br)c3)nc3ccccc23)cc(OC)c1O,-2.2,x,x,i,x,x,-0.1
Cc1ccc(CN2CCN(CC(=O)N=Nc3c(O)[nH]c4ccccc34)CC2)cc1,-2.2,x,8.1,x,x,0.74,-2.8
Cn1ccnc1C(=O)c1ccc(S(=O)(=O)N2CCCC2)cc1,-0.5,-7%,2.8,i,-1.9,0.68,-6.0
CN(c1ccc(C(=O)NC2CC2)cc1)S(=O)(=O)c1ccccc1,2.7,29%,1.3,x,x,0.74,5.2
O=C(Cn1[nH]c(=O)c2ccccc2c1=O)N1CCN(S(=O)(=O)c2ccc(Cl)cc2)CC1,x,x,5.0,i,-8.6,0.64,5.8
CCOC(=O)N1CCN(C(=O)c2ccc(Cl)c(S(=O)(=O)Nc3ccccc3)c2)CC1,2.1,0%,0.6,x,x,0.76,1.2
CC(=O)Nc1cc2oc3ccccc3c2cc1[N+](=O)[O-],x,x,-0.8,i,-0.1,0.66,0.4
CC(C)c1onc(C(=O)N2CCN(c3ccc(F)cc3)CC2)c1[N+](=O)[O-],2.7,-8%,1.3,x,x,0.66,-1.9
COc1ccc(/C=C(/C#N)C(=O)Nc2ccc(O)cc2)cc1C(=O)O,u,2%,x,i,0.0,x,-2.6
COc1cc(-c2n[nH]c(=S)n2-c2cccc(C(F)(F)F)c2)cc(OC)c1OC,-1.0,22%,3.7,x,x,0.67,0.6
COc1cc(OC)cc(C(=O)NCC(=O)OCC(=O)N2CC(C)CC(C)C2)c1 (stereo unspecified),2.6,-8%,2.9,i,-1.2,0.68,0.7
COc1cc(/C=C(\C#N)C(=O)Nc2cccc3ncccc23)cc(OC)c1OC,36*,11%,-0.9,x,x,0.69,-1.2
Cc1cc(OCCCCN2C(=O)NC(C)(C)C2=O)ccc1[N+](=O)[O-],3.6,-6%,8.6,i,-0.3,0.69,-4.1
CCOC(=O)C1=C(Nc2ccc(Cl)cc2)OCC1=O,5.6,x,2.9,i,-0.2,0.68,-0.3
COc1cc(/C=N/NC(=O)CCC(=O)NC2CCCCC2)ccc1C,0.6,x,x,x,-1.5,x,2.6
CC(C)CC(=O)N1CCN(Cc2ccc(C(F)(F)F)cc2)CC1,7.7,x,7.1,i,-0.7,0.67,-1.1
COc1ccc(-c2nnc(SCCC(=O)O)n2-c2ccccc2)cc1OC,-0.4,-3%,2.0,i,2.8,0.74,10
O=C(CCN1CCOCC1)Nc1cc(C(=O)Nc2ccccc2F)ccc1N1CC2CC(C1)c1cccc(=O)n1C2 (stereo unspecified),-2.2,x,0.4,i,-1.4,0.69,-2.1

# The results go on:
SMILES,RanGTP-Impb inh,Vif A3G,UCH37 DUB inh,FGF22 binding,MLL AF4-AF9 inh,E coli growth,HNF4A DNA FP
Cc1ccc(S(=O)(=O)Nc2ccc(-n3c(C)nc4ccccc4c3=O)cc2)cc1,2.2,-1%,4.2,i,0.4,0.68,-0.2
Cc1ccc(-c2noc(CSc3nnc(Cc4ccccc4)n3-c3cccc(C)c3)n2)cc1,1.5,2%,4.3,i,11,0.72,0.9
O=C1C(=O)N(Cc2cccnc2)C(c2ccccn2)/C1=C(/O)c1ccccc1 (stereo unspecified),4.0,u,11,x,x,0.69,0.2
CC1Cc2ccccc2N1S(=O)(=O)c1cnc(Cl)c(Cl)c1 (stereo unspecified),5.0,14%,5.0,i,6.1,0.66,-5.1
COc1ccc(-n2nc3c(c2NC(=O)C2CC(=O)N(c4ccccc4)C2)CS(=O)(=O)C3)cc1 (stereo unspecified),-0.8,x,1.2,i,1.8,0.72,-1.5
Cc1ccc(S(=O)(=O)N2CCOCC2)cc1NC(=O)CNCC1CCCCC1,0.1,33%,-1.2,i,0.7,0.71,3.5
COc1ccc(C2(C(N)=O)CCCCC2)cc1OC,-0.6,3%,-2.8,x,x,0.73,-0.2
COc1cccc(/C=C/C(=C2/C(=O)N(c3ccccc3)N=C2C)c2ccc(C)cc2)c1OC,-2.3,x,6.3,i,4.8,0.72,-0.9
COc1ccc(NC(=O)/C(C#N)=C/c2ncc([N+](=O)[O-])n2C)c(OC)c1,0.2,-1%,4.1,i,-4.6,0.67,1.3
COc1ccc(C(=O)OCN2C(=O)c3ccccc3C2=O)cc1,11,0%,1.3,i,-0.6,0.65,-0.3
COc1ccc(C(=O)NC(C(=O)N2CCN(c3ccccc3O)CC2)C(C)C)cc1 (stereo unspecified),-2.7,x,5.7,i,-6.7,0.7,-1.3
O=C(CSc1ccc2ccccc2c1)NCCCN1CCCC1=O,8.6,2%,1.9,i,-2.3,0.7,-0.5
O=C(Nc1cccc2c1CCCC2)c1ccccc1F,2.9,x,3.4,i,-1.6,0.63,3.8
Cc1c(C(=O)C(=O)N2CCN(C)CC2)c2ccccc2n1C,-2.6,-10%,5.0,i,-6.6,0.68,6.9
O=C1NCN(C2CCCCC2)CN1,x,-6%,-1.4,i,-1.5,0.66,1.2
COc1ccc(C2c3[nH]c4ccccc4c3C[C@H]3C(=O)N(C4CCN(Cc5ccccc5)CC4)CC(=O)N23)c(OC)c1 (stereo partly specified),2.5,-6%,1.3,i,13,0.67,2.9
O=C(CSc1nnc(C2CC2)n1Cc1ccccc1)Nc1cccnc1Cl,7.3,x,2.5,i,-7.3,0.65,-6.4
CC1=CC2=NC(=O)/C(=C\c3cc(C)n(-c4cccc(Cl)c4)c3C)C(=N)N2O1,-4.4,-6%,-37,i,8.7,0.7,4.0
O=C(Nc1cccnc1)c1ccc(Cl)cc1[N+](=O)[O-],-1.4,x,2.5,i,-0.9,0.65,-1.6

# Entries of single compounds, quoted from the list.
# Profile of O=C(CSc1ccc2ccccc2c1)NCCCN1CCCC1=O : RanGTP-Impb inh = 8.6; Vif A3G = 2%; UCH37 DUB inh = 1.9; FGF22 binding = i; MLL AF4-AF9 inh = -2.3; E coli growth = 0.7; HNF4A DNA FP = -0.5
# Profile of COc1ccc(C2(C(N)=O)CCCCC2)cc1OC : RanGTP-Impb inh = -0.6; Vif A3G = 3%; UCH37 DUB inh = -2.8; FGF22 binding = x; MLL AF4-AF9 inh = x; E coli growth = 0.73; HNF4A DNA FP = -0.2
